# Assay outcomes deposited in PubChem BioAssay by Johns Hopkins Ion Channel Center.
# Kir21 block: inhibitors of mouse Kir2.1 inward-rectifier potassium channel. B-score at 10 µM. Inward rectifier potassium channel 2 (Mus musculus), P35561. HEK293-Kir2.1, FluxOR thallium flux fluorescence; hits give low values. 310,000 tested, 0.85% active;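 active = fluorescence ratio B-score at or below minus 3 SD of library scores, with starting-brightness B-score within 2 SD, cut at about -4.2 in these data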;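 note: channel flux triggered by added potassium and thallium sulfate stimulus; B-score of peak minus minimum fluorescence over baseline after thallium stimulus; more negative B-score means stronger Kir2.1 block with less thallium influx; some compounds called inactive have numbers as strong as hits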
# Target sequence (P35561 whole entry, looked up): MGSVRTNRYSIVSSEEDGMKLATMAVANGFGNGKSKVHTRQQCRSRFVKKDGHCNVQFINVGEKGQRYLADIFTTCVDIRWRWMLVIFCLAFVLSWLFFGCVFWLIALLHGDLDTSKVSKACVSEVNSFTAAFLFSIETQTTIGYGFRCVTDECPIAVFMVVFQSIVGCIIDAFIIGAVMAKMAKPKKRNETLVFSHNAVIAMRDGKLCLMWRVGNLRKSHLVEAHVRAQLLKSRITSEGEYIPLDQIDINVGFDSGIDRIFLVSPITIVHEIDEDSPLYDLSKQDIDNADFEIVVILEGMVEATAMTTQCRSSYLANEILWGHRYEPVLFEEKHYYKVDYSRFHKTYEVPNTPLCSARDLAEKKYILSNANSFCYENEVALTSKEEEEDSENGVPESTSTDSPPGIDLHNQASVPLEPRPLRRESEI
# Starred values were filed as active, the others as inactive.
Compound	Kir21 block
Cc1oc2c(C)c3oc(=O)c(CCC(=O)NCCCN4CCOCC4)c(C)c3cc2c1C	-0.01
COc1ccc(N2CCN(Cc3cc(=O)c(OCC(=O)Nc4ccccc4)co3)CC2)cc1	-0.21
Cc1noc(C)c1S(=O)(=O)NCc1ccc2c(c1)OCO2	0.04
Cn1ccnc1Sc1nc2ccccc2nc1NS(=O)(=O)c1ccccc1	-0.03
O=C(OCCCN1CCOCC1)c1ccc(O)c(O)c1	1.5
Cc1ccc(-c2nn(CC(=O)NCC3CCCO3)c(=O)c3ccccc23)cc1 (stereo unspecified)	-2.9
Cc1cc(C)n(C(=O)CNC(=O)c2cccc(Cl)c2)n1	1.5
O=C(O)c1ccc(/C=N/N2CCN(c3ccccc3)CC2)cc1	0.57
Cc1cc(=O)oc2c(C)c(OCC(=O)NCCc3ccc(S(N)(=O)=O)cc3)ccc12	1.1
CCn1cc(C(=O)NCc2ccccc2)c(=O)c2cc(F)c(N3CCN(C(=O)c4ccco4)CC3)cc21	0.5
N/C(=N\OC(=O)Cc1cccs1)c1ccc(Cl)cc1	0.72
CCN1CCN(c2oc(-c3ccc([N+](=O)[O-])cc3)nc2C#N)CC1	0.32
CC(C)CNS(=O)(=O)c1cc(C(=O)OCC(=O)N(C)C2CCS(=O)(=O)C2)c(Cl)cc1Cl (stereo unspecified)	1.6
Cc1cccc2cc(COC(=O)c3ccccc3)c(=O)[nH]c12	0
O=C(O)C1Cc2ccccc2CN1C(=O)c1ccccc1Cl (stereo unspecified)	-1.6
COc1ccc(NC(C)=O)cc1NC(=O)CN1CCN(C(=O)c2ccco2)CC1	-0.77
Cc1cccc(NC(=O)C2(c3cccs3)CCOCC2)c1	-2.3
CCCCOc1ccc(C(=O)NNC(=O)C2C3CCC(C3)C2C(=O)O)cc1 (stereo unspecified)	-0.9
CC(=O)NCC(=O)OCC(=O)c1ccc(Cl)cc1	1.1
O=C(NCc1ccc(F)cc1)C(c1ccc(F)cc1)N(C(=O)c1csnn1)C1CC1 (stereo unspecified)	0.46
COc1cccc(-c2nnc(SCN3C(=O)c4ccccc4C3=O)n2C)c1	-2.1
CCN(CC(=O)NCc1ccc(Cl)cc1)C(=O)NCc1ccc(Cl)cc1	1.9
CC1CN(CCCOc2ccc([N+](=O)[O-])cc2)CC(C)O1 (stereo unspecified)	1.5
O=C(c1ccc(CNS(=O)(=O)c2ccc(Br)cc2)cc1)N1CCCCCC1	-0.58
Cn1c(SCn2nnc3ccccc3c2=O)nc2ccccc2c1=O	0.62
Cc1ccc(C(=O)N(CN2CCCC2=O)c2ccc(F)cc2)cc1C	-3.5
CCOC(=O)C1CCCN(C(=O)c2ccccc2SCCOC)C1 (stereo unspecified)	2.7
Brc1ccc(N=NNc2ccccc2)cc1	0.9
CN(C)S(=O)(=O)c1ccc(NC(=O)CN2CCN(C(c3ccccc3)c3ccccc3)CC2)cc1	-0.44
Cc1ccc(C)c(NS(=O)(=O)c2ccc3oc(=O)ccc3c2)c1	-1.5
Cc1nc2c(C(=O)NCCC(C)C)c[nH]n2c(=O)c1Cl	0.66
COC(=O)c1ccc2nc(Nc3nc4ccc(F)cc4s3)sc2c1	0.84
COc1ccc(OC)c(CN2CCC(C(=O)N(C)CCc3ccc(OC)c(OC)c3)CC2)c1	1.7
COc1ccc(-c2nc3c(-c4ccccc4)cnn3cc2C)cc1F	0.67
Cc1nc2cc(NC(=O)NCc3ccco3)ccc2o1	1.4
COc1cc(/C=C/C(=O)OCC(=O)NC(=O)NC(C)C)cc(OC)c1OC	0.18
Cc1cccc(N2CC(C(=O)Nc3nnc(SCC(=O)N4CCOCC4)s3)CC2=O)c1 (stereo unspecified)	-1.3
Cc1ccc(S(=O)(=O)N2CCN(S(=O)(=O)N3CCCCCC3)CC2)cc1	0.24
C/C(=C\C(=O)c1ccc(C)cc1)Nc1cccc(O)c1	-0.03
COc1ccc2[nH]c(=O)c(CN(C(C)=O)c3ccc(C)cc3C)cc2c1	-1.1
O=[N+]([O-])c1ccc(N2CCN(S(=O)(=O)c3ccccc3)CC2)cc1NCCN1CCOCC1	0.74
NC(=O)CCCc1nc(-c2ccccc2Cl)no1	0.75
c1ccc(Nc2nc3ccccc3n3nnnc23)cc1	-1
Cc1nc2ccc(NC(=O)c3ccc(S(=O)(=O)N4CCOCC4)cc3)cc2s1	-0.91
CCOC(=O)c1ccc(Oc2nc(NC)nc(SC)n2)cc1	0.02
CCN1CCCC1CNC1=NCCCCC1 (stereo unspecified)	1.1
O=C(Nc1nc(-c2cccnc2)cs1)c1ccccc1[N+](=O)[O-]	-0.52
Cc1nc2cc(N=NC3=C(O)CCCC3=O)ccc2s1	1.6

# Copied from the list:
# `CCN(CC(=O)NCc1ccc(Cl)cc1)C(=O)NCc1ccc(Cl)cc1` in Kir21 block is listed with 1.9
# `COC(=O)c1ccc2nc(Nc3nc4ccc(F)cc4s3)sc2c1` in Kir21 block is listed with 0.84
# `CC(C)CNS(=O)(=O)c1cc(C(=O)OCC(=O)N(C)C2CCS(=O)(=O)C2)c(Cl)cc1Cl` (stereo unspecified) in Kir21 block is listed with 1.6
# `Cc1ccc(-c2nn(CC(=O)NCC3CCCO3)c(=O)c3ccccc23)cc1` (stereo unspecified) in Kir21 block is listed with -2.9
# `NC(=O)CCCc1nc(-c2ccccc2Cl)no1` in Kir21 block is listed with 0.75
# `Cc1ccc(C)c(NS(=O)(=O)c2ccc3oc(=O)ccc3c2)c1` in Kir21 block is listed with -1.5

# Further compounds:
Compound	Kir21 block
COc1cc(-n2c(=O)c3ccccc3n(Cc3ccccc3)c2=O)cc(OC)c1OC	0.32
CC(C)(C)OC(=O)NNC(=O)Nc1ccccc1C(F)(F)F	0.45
O=C(CSc1nnc2ccccn12)c1ccccc1	-0.54
COC(=O)C1N[C@@H]([C@@H](NC(=O)COc2ccccc2)C(=O)NCc2ccsc2)SC1(C)C (stereo partly specified)	-0.15
CCCN1C[C@H](CSC)C[C@@H]2c3cccc4[nH]cc(c34)C[C@H]21	2.4
O=C(CSc1nnc(NC2CCCCC2)s1)Nc1ccc(N2CCOCC2)cc1	-2.1
COc1ccc(CNC(=O)C(c2ccncc2)N(C(=O)Cc2cccs2)c2ccc(C)cc2)cc1 (stereo unspecified)	-1.7
CN1CCCCCC1=Nc1ccccc1C#N	-1.8
O=C1c2ccccc2C(=O)c2c1cccc2N1CCN(CCO)CC1	-0.22
Brc1ccccc1OCCCN1CCOCC1	0.96
O=c1c([N+](=O)[O-])cccn1Cc1ccc(F)cc1Cl	-0.44
Cc1nc2ccccc2n1CC(=O)N/N=C/c1cccs1	0.01
COC(=O)/C=C/COc1ccccc1[N+](=O)[O-]	-1.7
COc1ccc(C)cc1S(=O)(=O)Nc1cc2c3c(c1)CCN3C(=O)CC2	1.9
CC1CCC/C(=N\NC(=O)COc2ccc(Cl)cc2Cl)C1 (stereo unspecified)	-0.28
Cc1cc(C)n2nc(C(=O)N/N=C/c3cccc(Cl)c3)nc2n1	-0.42
CCCn1c(N)c(N(CCOC)C(=O)/C=C/c2cccc(Cl)c2)c(=O)[nH]c1=O	-1.4
N#Cc1ccc(Oc2ccc(-c3cnc4ccccc4n3)cc2)cc1C#N	2.1
COC(=O)c1ccccc1NC1c2ccccc2C(=O)N1c1cccnc1 (stereo unspecified)	0.13
CCOC(=O)c1c(C)nc2sc3c(=O)n(-c4ccc(C(C)=O)cc4)cnc3c2c1-c1ccc(Cl)cc1	-1
O=C(NCCCN1CCOCC1)C1(c2ccccc2)CCCC1	-1.1
COc1ccc(N2CCN(C(=O)c3ccc4[nH]c(C)c(C)c4c3)CC2)cc1	0.89
CON(C)c1nc(C2CCCCC2)c2cc(C)ccc2n1	2.2
Cc1nc(-c2ccc(NC(=O)c3ccccc3C)cc2)cs1	-0.28

# Of the compounds above, these contain a cyano group.
Compound	Kir21 block
CCN1CCN(c2oc(-c3ccc([N+](=O)[O-])cc3)nc2C#N)CC1	0.32
CN1CCCCCC1=Nc1ccccc1C#N	-1.8
N#Cc1ccc(Oc2ccc(-c3cnc4ccccc4n3)cc2)cc1C#N	2.1

# Continuation:
Compound	Kir21 block
COc1cc(OC)cc(-c2nnc(SCc3cccc(C(=O)O)c3)o2)c1	-0.79
OC(COc1cccc2ccccc12)CN1CCN(c2cccc(Cl)c2)CC1 (stereo unspecified)	0.2
COc1cccc(-c2cc(C(=O)N/N=C/c3cccc(OC)c3OC)c3ccccc3n2)c1	-0.99
COc1ccc(S(=O)(=O)N2CCC(C(N)=O)(N3CCCCC3)CC2)cc1	0.87
Cc1ccc(C2C(C#N)=C(N)N(N(C)C)C3=C2C(=O)CCC3)cc1 (stereo unspecified)	0.31
Brc1ccc(OCc2nnc3n2CCC3)cc1	-0.02
O=C(Nc1ccc2c(c1)OCCO2)C1CCN(S(=O)(=O)c2cccc3nsnc23)CC1	0.01
COc1cccc(NC(=O)CSCc2n[nH]c(=O)[nH]2)c1	-0.89
COCC(C)NC(=O)NC1(C(F)(F)F)Oc2ccc(Cl)cc2O1 (stereo unspecified)	-0.73
Cc1ccc(S(=O)(=O)N2CCN(C(=O)C(F)(F)F)C2c2ccc(N(C)C)cc2)cc1 (stereo unspecified)	0.01
COC(=O)c1c(NC(=O)Cc2cccs2)sc2c1CCC(C)C2 (stereo unspecified)	-0.59
O=C(CC1NC(=O)NC1=O)Nc1ccc(Cl)cc1 (stereo unspecified)	0.17
CC(Oc1ccccc1)C(=O)N1CCN=C1SCc1cccc(F)c1 (stereo unspecified)	-2.9
CCCS(=O)(=O)N1CCN(Cc2ccc([N+](=O)[O-])cc2)CC1	-0.13
CCNC(=O)Nc1cc2nc(C)n(Cc3ccc(Br)cc3)c2nc1C	-1.2
COc1ccccc1-n1cc(-c2ccc(Br)cc2)[nH]c1=S	-0.03
Fc1ccc(-n2[nH]nnc2=S)cc1N1CCCC1	2.9
COc1ccc(Oc2cc(C)c3cccc(C)c3n2)cc1	0.88
COc1ccc(OC)c(/C=N\Nc2nccs2)c1	1.1
COc1ccccc1OC(=O)c1cc(Cl)nc2ccccc12	0.32
O=C(Nc1ccc(C(F)(F)F)cc1)c1cccnc1N1CCOCC1	1.3
CCOc1ccc(CCNC(=O)COC(=O)c2ccc(OC)c(OC)c2OC)cc1OCC	-1.5
O=C(CNCc1ccco1)Nc1ccc(Oc2ccccc2)cc1	2.1
Cc1ccc(C)c(CSC2=NCCN2C(=O)c2cccs2)c1	0.89
Cn1cnc([N+](=O)[O-])c1Oc1cccc(O)c1	1.6
CCN(CC)CCCn1c(C)cc2c(c1=O)C(c1cc(OC)c(OC)cc1OC)C(C#N)=C(N)O2 (stereo unspecified)	-0.39
COc1nc(Nc2ccc(OC)c(Cl)c2)nc(OC)n1	1.4
C=CCNC(=O)c1c(N)n(-c2ccc3c(c2)OCO3)c2nc3ccccc3nc12	-0.27
Cc1cccc(/C=N/NC(=O)CC(=O)NCCc2ccccc2)c1	0.36
Cc1ccc2nc(SCC(=O)Nc3ncccn3)[nH]c2c1	0.79
CCCCC(=O)NC(=S)Nc1nnn(CCC)n1	-0.06
CCOC(=O)c1c(C)[nH]c(C(=O)Nc2ccc(NC(C)=O)cc2)c1C	0.53
O=C(COC(=O)c1c2c(nc3ccccc13)CCCC2)c1ccc(Br)s1	0.57
Cc1c(C(=O)N2CC(C)OC(C)C2)oc2ccccc12 (stereo unspecified)	0.13
Cc1[nH]nc(NNC(=O)c2ccccc2)c1[N+](=O)[O-]	1.2
CCOc1ccc(OCCSc2nc3ccccc3[nH]2)cc1	0.2
Cc1onc(-c2ccccc2Cl)c1C(=O)NCCN1Cc2ccccc2C1=O	0
O=C1CCCN2N=C(SCC(=O)Nc3ccccc3C(F)(F)F)SC2=N1	0.29
O=C1CSC(c2ccc([N+](=O)[O-])cc2)N1C1CCCCC1 (stereo unspecified)	-4
Cc1cc(C(=O)COC(=O)[C@H](C)NC(=O)c2ccco2)c(C)n1Cc1ccco1	0.83
COc1cc(Cl)ccc1OCc1cc(C(=O)N2CCCCCCC2)no1	-0.55
O=C(Nc1ccncc1)c1cccc(S(=O)(=O)N2CCc3ccccc32)c1	-3.7
CC(=O)Oc1ccc2c(=O)c(Oc3ccccc3)c(C)oc2c1OC(C)=O	0.86
Cn1c(NCCc2ccccc2)cc(=O)n(C)c1=O	0.32
CCN1CCN(CCOc2ccc(Br)cc2C)CC1	0
COc1ccc(CCNC(=O)c2cc(-c3ccc4c(c3)OCO4)on2)cc1OC	-0.9
COc1ccc(S(=O)(=O)N2CCC(N3CCN(c4ccccc4)CC3)CC2)cc1	2
Cn1cccc1/C=N/NC(=O)CNc1cccc2ccccc12	0.1
O=C(NCc1nnnn1-c1ccc(F)c(F)c1)C(=O)c1c[nH]c2ccccc12	-2.4
C/C(=N\NC(=O)C(N)=O)c1ccc(NC(=O)c2cccs2)cc1	-2.8
CC(C)c1cccc(C(C)C)c1NC(=O)CCl	-0.19
CCCN(CC(=O)Nc1ccccc1C)C(=O)CCN1C(=O)c2cccc([N+](=O)[O-])c2C1=O	-0.58
COC(=O)c1cc(Br)c(=O)n(CCN2CCOCC2)c1	1
O=C(COc1cc2oc(=O)c3c(c2cc1Cl)CCC3)Nc1cccnc1	1.1
CCC(C)NC(=O)CNC(=O)c1nn(-c2ccc(OC)c(Cl)c2)c(=O)c2ccccc12 (stereo unspecified)	0.46
CCOC(=O)CSc1nc(C)cc2c1C(=O)OC2	0.63
Cc1ccc(S(=O)(=O)NC(=O)NC(C)Cc2ccccc2)cc1 (stereo unspecified)	-0.49
N=c1ccn(Cc2ccc(F)cc2)cc1	0.42
CCN1C(=O)[C@H]2[C@@H](c3ccc(OC)cc3)N3C(=O)CN(Cc4ccccc4)C(=O)[C@@]3(Cc3ccccc3)[C@H]2C1=O	0.77

# An excerpt; most or all hits stand in other tables.
